FGF22 binding: shifts melting point of recombinant human FGF22; Q9HCT0; recombinant FGF22 thermal shift, SYPRO orange fluorescence; percent of sucrose octasulfate shift, DMSO zero; calls only at 9.99 µM; hit rate 1.5% among 340,000;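 active = melting point raised past a set limit in the mean and every replicate; inconclusive = no clear call; three in four hits are not shown here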
Target sequence (Q9HCT0 whole entry, looked up): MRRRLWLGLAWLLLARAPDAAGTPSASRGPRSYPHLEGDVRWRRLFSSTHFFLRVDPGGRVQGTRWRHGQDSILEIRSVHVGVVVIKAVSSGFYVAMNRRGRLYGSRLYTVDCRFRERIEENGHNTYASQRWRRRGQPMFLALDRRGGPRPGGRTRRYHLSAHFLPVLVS
MLL AF4-AF9 inh: inhibitors of human MLL-AF4/AF9 interaction; P42568; AlphaScreen, biotin-AF4 peptide binding to FLAG-AF9; inhibition, % at 10 µM; hit rate 0.47% among 350,000; AID 651704;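 active = every replicate reaching a set inhibition limit, whatever the replicate mean, cut at about 25% in these data; inconclusive = mean inhibition reaches that limit but some replicates miss it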;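 note: 0% = plate neutral control median and 100% = total signal loss; the record names both 10 and 1 µM as test concentration; the first replicate is given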
Target sequence (P42568 whole entry, looked up): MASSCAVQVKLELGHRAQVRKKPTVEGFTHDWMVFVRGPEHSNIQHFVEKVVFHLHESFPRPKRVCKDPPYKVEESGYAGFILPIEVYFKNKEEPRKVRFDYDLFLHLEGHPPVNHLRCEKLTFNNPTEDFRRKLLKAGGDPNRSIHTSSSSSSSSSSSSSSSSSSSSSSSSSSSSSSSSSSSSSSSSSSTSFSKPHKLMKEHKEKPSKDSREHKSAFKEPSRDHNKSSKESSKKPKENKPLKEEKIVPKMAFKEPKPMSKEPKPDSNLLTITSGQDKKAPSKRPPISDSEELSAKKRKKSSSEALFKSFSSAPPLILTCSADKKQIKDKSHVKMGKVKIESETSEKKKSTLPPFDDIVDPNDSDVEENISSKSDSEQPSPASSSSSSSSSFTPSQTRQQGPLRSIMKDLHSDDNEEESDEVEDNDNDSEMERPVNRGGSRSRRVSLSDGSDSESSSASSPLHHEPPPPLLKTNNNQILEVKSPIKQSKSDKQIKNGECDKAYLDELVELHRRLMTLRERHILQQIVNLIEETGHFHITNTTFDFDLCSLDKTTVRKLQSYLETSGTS
T cruzi inh: T. cruzi replication inhibition; hit rate 1.4% among 300,000; T. cruzi beta-gal in NIH3T3, luminescence, 90 h; AID 1885; inhibition, % (no concentration beside the values);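 active = mean inhibition across valid replicates above about 55%, limit read from the data; inconclusive = mean below that limit but half or more replicates reach it; inactive = mean below it, under half of replicates reach it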;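 note: signal also drops with host cell toxicity which is not excluded here; 0% = plate median of DMSO wells and 100% = zero luminescence signal; higher percent means less beta-gal luminescence so fewer parasites; stock transfer was 50 nL into about 50 µL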
Ecoli rRNA inh: inhibits bacterial ribosomal RNA function over humanized ribosomes | E. coli WT GFP vs humanized-ribosome RFP mutants, fluorescence, 24 h; stronger effect = lower value; DMSO median 0, no signal -100 | GFP signal change (wild-type ribosome), % (concentration not given with the values) | hit rate 1.6% among 350,000;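 active = significant combined selectivity score with lowered wild-type GFP, culture density cut under 30%, mutant RFP and density less affected; inactive = any of these conditions unmet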; note: one replicate is shown; some compounds called inactive have numbers as strong as hits
E coli growth: blocks Escherichia coli growth. OD600, 23 h; stronger effect = lower value. OD600 absorbance (concentration not given with the values). hit rate 0.21% among 330,000;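 active = OD600 absorbance below the run mean of sample wells minus 3.6 SD, in any replicate, cut at about 0.56 in these data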;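 note: stock transfer was 300 nL into about 60 µL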
UCH37 inh: human UCH37 deubiquitinating enzyme inhibition. Q9Y5K5. purified proteasome/UCH37, Ub-AMC cleavage fluorescence. inhibition, % (test concentration not listed). hit rate 0.33% among 330,000. AID 588478;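 active = mean of two replicates above 20%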;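 note: 0% = compound-free wells with enzyme and 100% = wells lacking proteasome; stock transfer was 100 nL into about 20 µL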
Target sequence (Q9Y5K5 whole entry, looked up): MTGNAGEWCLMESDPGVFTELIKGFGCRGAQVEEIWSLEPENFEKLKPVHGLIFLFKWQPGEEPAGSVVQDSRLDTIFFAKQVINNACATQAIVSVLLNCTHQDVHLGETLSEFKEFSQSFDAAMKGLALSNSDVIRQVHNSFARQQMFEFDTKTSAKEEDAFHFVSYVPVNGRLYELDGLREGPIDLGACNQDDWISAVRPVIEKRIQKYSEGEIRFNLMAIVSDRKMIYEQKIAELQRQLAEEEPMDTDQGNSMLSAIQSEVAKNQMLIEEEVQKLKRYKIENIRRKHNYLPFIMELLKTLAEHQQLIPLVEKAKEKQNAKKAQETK
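Schedule: 30 min plus 25 min, room temperature / Material: human UCH37 within purified proteasomes / Technique: AMC fluorescence intensity at 355/460 nm / Buffer or medium: pH 7.4 Tris-HCl (50 mM) with ovalbumin, ATP-MgCl2, DTT / Controls: wells without proteasome as full block, compound-free enzyme plus substrate as uninhibited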
Beta apoptosis: beta cell apoptosis inhibition; INS-1E cytokine-induced death, ATP luminescence, 48 h; percent of positive-control rescue, neutral wells zero; protection from apoptosis, % (test concentration not listed); hit rate 0.8% among 300,000;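 active = all replicates at 75% or more, or half of them and the mean; inconclusive = half reach 75% but not the mean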;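 note: 0% = cytokine-treated negative control wells and 100% = positive control rescue; higher means more ATP so stronger rescue from cytokine killing; wells of about 40 µL received 100 nL stock; the first replicate is given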
A1 inh: inhibitors of the anti-apoptotic protein A1, read as caspase activation; MEF A1-2A-BIM cells, Caspase-Glo 3/7 luminescence, 3 h; percent of clofoctol response, vehicle zero; caspase activation, % (concentration not given with the values); hit rate 0.066% among 330,000;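 active = over half of replicate activation scores above 10%, or exactly half above 10 with the replicate mean above 10; inconclusive = replicate mean below 10 yet half the replicates above 10; inactive = over half of replicates below 10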;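 note: wells of about 30 µL received 50 nL stock; many hits fall short of the cut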
Ecoli rRNA inh OD600: further read-out of Ecoli rRNA inh, marked with its call; OD600 change, %; measured here: OD600 growth;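 optical density of the mix in the first replicate; 0 = DMSO median and -100 = no signal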
Ecoli rRNA inh RFP: further read-out of Ecoli rRNA inh, marked with its call; RFP signal change, %; measured here: RFP humanized mutant strains;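 first replicate; 0 = DMSO median and -100 = no signal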
* marks the source's active call; other numbers are inactive results; i = inactive; ? = inconclusive; . = no result given; & = joins results of further samples. These rows are one share of the data; rates above refer to the full screens.

SMILES | FGF22 binding | MLL AF4-AF9 inh | T cruzi inh | Ecoli rRNA inh | Ecoli rRNA inh OD600 | Ecoli rRNA inh RFP | E coli growth | UCH37 inh | Beta apoptosis | A1 inh
COc1ccc(CCC(=O)NCc2cn3ccsc3n2)cc1 | . | . | -0.4 | . | . | . | 0.699 | 3.8 | -1.8 | 0.7
CCS(=O)(=O)N1CCC(N2CCN(c3ccccc3)CC2)CC1 | i | -4.7 | -1.5 | 4.8 | -10.6 | -0.1 | 0.672 | -0.6 | . | -0.5
O=C(O)c1ccc(C(=O)c2ccc3c(c2)C(=O)N(CC2CCCO2)C3=O)cc1 (stereo not given) | i | -1.7 | -17.7 | -2.8 | -1.1 | -1.5 | 0.645 | 1.1 | 0.3 | 0.6
Cc1sc2ncnc(Sc3ccccc3C(=O)Nc3ccc(C#N)cc3)c2c1C | i | 0.9 | 13.8 | -22.8* | -15.3* | -4.6* | 0.682 | 1.0 | -0.9 | 0.1
Cc1ccc(C(=O)Nc2ccccc2Cl)cc1 | i | 0.3 | 0.0 | 6.0 | 2.7 | 0.9 | 0.667 | 5.1 | 2.5 | -7.0
O=C(NC(=S)N1CCCCC1c1cccnc1)c1ccc(F)cc1 (stereo not given) | i | -1.1 | -3.6 | -2.3 | -5.2 | -4.3 | 0.679 | 0.4 | -1.6 | 0.6
COc1ccccc1CNS(=O)(=O)c1ccc(-n2cnnn2)c(C)c1 | i | -13.3 | -2.1 | 3.7 | 2.2 | 0.0 | 0.698 | 4.3 | 1.6 | 0.1
COc1ccccc1NS(=O)(=O)c1cc(NC(=O)Nc2ccccc2)ccc1N1CCCCC1 | i | -0.9 | . | -4.5 | 0.9 | 10.9 | 0.718 | 4.0 | 31.2 | 0.7
O=C(Nc1ccccc1)[C@@H]1CC=C[C@@H]2CCN(Cc3ccc(Cl)c(Cl)c3)C(=O)[C@@H]21 | i | 3.0 | 16.4 | -30.6 | -50.0 | 7.2 | . | 3.1 | 2.3 | -2.1
O=[N+]([O-])c1c(Nc2ccccc2O)ccc2nonc12 | i | 7.5 | -27.3 | -3.5 | -4.8 | -0.1 | 0.669 | 6.7 | -4.3 | -0.8
Cc1ccc(OCCC(=O)OCC(=O)NC(=O)c2ccccc2)cc1 | i | -0.1 | -10.3 | 8.0 | 5.3 | 0.3 | 0.682 | 5.4 | -2.3 | 0.3
O=C(C1CCCC1)N(c1ccccc1)C1C=CS(=O)(=O)C1 (stereo not given) | . | . | -9.0 | . | . | . | 0.692 | 2.3 | -1.5 | ?
Cc1cc2cc3c(cc2nc1SCC(=O)Nc1ccccc1)CCC3 | . | . | -8.9 | . | . | . | 0.712 | -0.8 | -2.7 | 0.2
COc1ccc(Cl)c(OC)c1C(=O)NC(=O)Nc1nc(C)nc(C)n1 | i | -3.5 | 4.6 | 8.1 | 4.6 | 4.3 | 0.686 | 2.9 | -0.9 | -0.1
Cc1ccc(OCC(=O)N/N=C/c2cccn2C)cc1C | i | 2.1 | -21.1 | 2.4 | 5.1 | 5.8 | . | . | 1.6 | 0.5
Cc1c(Cl)cccc1NC(=O)NCCCN1CCCC1=O | i | -5.4 | -9.7 | 1.2 | 8.3 | -1.7 | 0.672 | 5.1 | 2.4 | -0.1
CCOC(=O)COc1c(/C=N\O)cc(Cl)cc1OC | i | 3.3 | -8.3 | -0.7 | 2.1 | -2.6 | . | . | -1.0 | 0.3
CCN(C(=O)COC(=O)CN1C(=O)c2ccccc2C1=O)c1ccccc1 | i | -0.6 | . | 4.9 | 7.7 | 1.3 | 0.697 | 5.0 | -6.5 | -0.4
CN1c2ccccc2C(=O)NC1c1ccc([N+](=O)[O-])s1 (stereo not given) | i | . | 43.4 | 1.8 | 20.3 | -3.8 | . | . | -4.3 | -0.2
CC1CC2(CCCC2)N(C(=O)c2ccccc2)Cc2ccccc21 (stereo not given) | i | -0.8 | 24.3 | -27.8 | -40.4 | -7.7 | 0.678 | 1.7 | -3.2 | 0.3
Cc1nnc(SCC(=O)NNC(=O)C(C)C)[nH]c1=O | i | -14.9 | 4.5 | 4.7 | 3.2 | -7.4 | 0.683 | 3.4 | -0.3 | 0.3
O=C(Nc1ccc(N2CCN(C(=O)c3ccccc3)CC2)c(Cl)c1)c1ccc(Br)o1 | i | -0.3 | 42.8 | -22.6* | -7.4* | 8.5* | 0.748 | 5.8 | 19.8 | 0.7
COc1ccc(NC(=S)/N=C(\N)Nc2nc(C)c3ccccc3n2)cc1 | i | 0.1 | 44.8 | -8.2 | -2.3 | 14.8 | 0.721 | 6.8 | -0.7 | -0.2
COCCn1c(SCC(=O)NNC(=O)Cc2ccccc2)nc2ccccc2c1=O | i | -0.3 | 0.6 | 12.9 | 6.5 | 1.8 | 0.69 | -0.4 | -3.7 | -0.4
CCC(=O)Nc1ccc2c(c1)nc(CCN1CCCCC1)n2C | i | 0.3 | -6.0 | 5.5 | 13.8 | 0.5 | 0.678 | -0.3 | -0.2 | 0.3
CC(c1ccco1)N(C(=O)C12CC3(C)CC(C)(CC(C)(C3)C1)C2)c1ccccn1 (stereo not given) | . | . | 14.0 | . | . | . | 0.652 | 0.1 | 8.4 | 0.9
CC(C)C1=NOC(C(=O)N2CCC(N3CCC(C(=O)N4CCOCC4)CC3)CC2)C1 (stereo not given) | . | -1.3 | -7.6 | 18.9 | 13.3 | -0.2 | 0.723 | 1.1 | 0.6 | -0.2
O=C(Cc1ccccc1)NCCn1ccc2ccccc21 | i | -4.0 | 3.0 | 1.2 | 6.0 | 8.6 | 0.743 | 1.3 | -5.2 | 0.9
Cc1ccc(/C=N/NC(=O)C(c2ccncc2)N2CCOCC2)cc1 (stereo not given) | i | -2.3 | -4.2 | 11.4 | 4.2 | -0.9 | . | . | 1.5 | -0.6
Cc1cccc(OCc2n[nH]c(=S)n2-c2ccccc2)c1 | i | -2.3 | 1.4 | -8.0 | -8.8 | -0.3 | 0.741 | 1.6 | 3.2 | 0.4
COc1ccc2nc(-c3ccccc3)nc(SCC(=O)NCC3CCCO3)c2c1 (stereo not given) | i | 0.1 | 11.7 | 3.8 | 10.9 | 0.0 | 0.656 | -55.1 | . | 0.0
CCn1c(COc2cccc(C)c2)nc2ccccc21 | . | . | 15.5 | . | . | . | 0.722 | 4.0 | -8.4 | -1.2
CC(Nc1ccc(Cl)cc1)C(=O)NN (stereo not given) | i | 5.7 | -14.4 | -14.0 | 2.7 | 0.7 | 0.69 | 3.5 | -8.3 | 0.2
CCOC(=O)N1CCN(C(=O)CCN2C(=O)c3ccccc3S2(=O)=O)CC1 | i | 0.5 | -2.8 | 14.4 | 6.9 | -1.8 | 0.664 | 1.8 | -1.6 | 0.9
COc1ccccc1Nc1ccc(Nc2ccccc2OC)nn1 | . | . | 12.4 | . | . | . | 0.635 | 5.9 | -5.3 | -0.1
O=C(CCCOc1ccccc1)N1CCN(S(=O)(=O)c2cccc(F)c2)CC1 | i | -36.1 | 7.6 | 9.8 | 13.7 | -3.7 | 0.66 | -0.2 | 5.5 | 0.2
Cc1cccc(N2C(=O)c3ccc(C(=O)Nc4cccc(C(=O)O)c4)cc3C2=O)c1 | i | -1.8 | -17.3 | 8.6 | 9.5 | -3.7 | 0.667 | 5.6 | -4.4 | -0.5
CCOC(=O)c1c(-c2ccco2)csc1NC(=O)COC(=O)c1cnccn1 | i | -21.4 | -8.2 | -9.4 | -15.8 | 0.8 | 0.65 | 0.8 | -2.8 | 0.3
CC(C)NC(=O)C(=O)NCCN1CCN(C(=O)c2ccc(C(C)(C)C)cc2)CC1 | i | -1.4 | 0.1 | 15.9 | 20.5 | 2.8 | 0.646 | 1.2 | 0.4 | 0.0
COC(=O)c1ccc(COn2nnc3ccccc32)cc1 | i | -3.1 | 13.6 | -7.6 | -6.2 | -2.5 | 0.675 | -0.4 | -6.5 | 0.0
CC[N+](CC)(CC)CC(=O)Nc1c(C)cccc1C | i | 0.0 | -17.7 | . | . | . | 0.678 | 5.8 | -5.8 | 0.0
O=C(COc1ccc(F)cc1Br)N1CCN(S(=O)(=O)/C=C/c2ccccc2)CC1 | i | 5.3 | 13.3 | -15.8 | -22.8 | 0.2 | 0.704 | 1.4 | -8.1 | 0.8
NC(=O)c1cc2ccccc2o/c1=N/NC(=O)c1cccs1 | i | -0.7 | -3.5 | 0.3 | 8.7 | 4.5 | . | . | 11.1 | 2.0
COc1ccc(OC)c(/C=N/N=C2\SCC(=O)N2Cc2ccco2)c1 | i | 2.0 | -4.5 | . | . | . | . | . | 0.6 | 0.8
CCC(CO)Nc1nc2ccc(Cl)cc2c2ccccc12 (stereo not given) | i | 2.6 | 17.1 | -55.0 | -76.3 | -16.5 | 0.639 | -16.8 | . | 0.2
COc1cc(NC(=O)c2ccc(N)nc2)cc(C(=O)Nc2cccc(C(F)(F)F)c2)c1 | i | 7.0&8.3 | 0.1 | -25.9&-16.7 | -38.9&-13.4 | -2.3&-0.9 | 0.663 | -2.0 | 3.6 | 1.4
COc1cc(O)c(C(=O)/C=C/c2ccccc2)c(OC)c1 | i | 11.4 | -52.7 | -5.0 | 2.2 | -11.1 | 0.67 | 5.9 | -1.2 | -0.4
COc1ccc(-c2[nH]ncc2CN(C)C(C)c2ccncn2)c(F)c1 (stereo not given) | i | -0.8 | 9.4 | 6.0 | 11.1 | 1.4 | 0.735 | 1.5 | -6.5 | -0.5
COc1cccc(-n2c(C)nc3cc(C(=O)O)ccc32)c1 | i | 5.5 | 2.9 | -2.2 | 17.0 | -0.6 | 0.717 | 4.2 | -1.4 | -0.1
Cc1cc(-c2nc(C)c(C(=O)NNS(=O)(=O)c3cccc(C(F)(F)F)c3)s2)no1 | i | -2.6 | -7.6 | 13.2 | 20.6 | 2.1 | 0.645 | 6.1 | -0.5 | 0.2
COc1ccc(CC2(CO)CCN(C/C=C/c3ccccc3OC)CC2)cc1 | i | 4.5 | 27.6 | -7.9 | -16.2 | 3.2 | 0.633 | 2.2 | 15.6 | -0.4
Fc1ccc(NC(=S)NCCN2CCOCC2)cc1 | i | -3.1 | -5.2 | 13.3 | 1.4 | -3.5 | 0.697 | 3.5 | 5.2 | 1.4
COc1ccc(Cl)cc1C(=O)OCC(=O)N1CCCC(C)C1 (stereo not given) | i | -0.6 | . | -3.0 | -3.3 | -0.5 | 0.7 | 1.6 | -2.4 | -0.7
COCCCNC(=O)Cn1nnc(-c2ccccc2NC(=O)c2ccc(F)cc2)n1 | . | . | 10.6 | . | . | . | 0.716 | 3.8 | . | 0.6
Cc1cccc(-n2ncc3c(NCc4ccco4)ncnc32)c1 | . | . | 2.5 | . | . | . | 0.745 | 0.7 | 3.9 | -0.6
O=C(/C=C/c1c(Cl)cccc1Cl)NCc1ccccc1 | . | . | -10.6 | . | . | . | 0.707 | 5.3 | -0.1 | 0.0

Assay outcomes as filed in PubChem BioAssay.
